Source: PubChem BioAssay (National Center for Advancing Translational Sciences (NCATS))
Rango release inh – prevents RanGTP from dissociating the Rango-importin beta complex. O95149+P62826. Biochemical FRET Rango-importin beta, RanGTP-induced dissociation. Potency, µM (titrated, usually from 46.1 µM), inactives show at the highest dose activity change, negative = inhibition. actives 0.071% (n = 340,000). AID 540253; active means falling FRET ratio curve, often poorly fitted, with flat reads before Ran was added; inconclusive means other falling curves, or compound fluorescence or quenching; inactive means flat or rising ratio curve;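 further: potency means the concentration at half of the fitted maximal effect; % of control where 0% means no effect; nearly all actives have a fitted effect of over 45% in size; -100% = wells without RanGTP and RCC1; the record marks most hits as doubtful in a second field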
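Quantitative HTS using a FRET biosensor: 0.1 uM Rango, 0.25 uM importin beta, 0.6 uM Ran, 2 mM GTP, 0.2 uM RCC1 final, PBS with DTT, Tween-20 and BSA. Post-read taken 45 min after Ran addition.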
GLA inh pH 4.5 – inhibitors of human alpha-galactosidase A at pH 4.5; activity change, negative = inhibition, % at 105 µM; 230,000 tested, under 10 active; P06280; purified enzyme, 4-MU-alpha-Gal fluorescence, pH 4.5; AID 1467; inconclusive = small, poorly fitted or top-dose-only inhibition, or a rising curve; inactive = flat fitted curve, though single readings scatter; no compound was filed as active;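 further: 0% = full activity with enzyme and -100% = basal without enzyme; dose as in the result columns while the protocol names 77 µM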
Rango-impB inh – prevents formation of the Rango-importin beta complex | actives 0.031% (n = 340,000) | Rango CFP/YFP FRET sensor + importin beta, 45 min | Q14974 | Potency, µM (highest dose often 92.2 µM), for inactives: at the top dose inhibition of complex formation; active = rising FRET ratio curve, often small or poorly fitted; inconclusive = mostly compound fluorescence or quenching in the first reads; inactive = flat curves in all reads;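 further: potency means the concentration at half of the fitted maximal effect; 0% = DMSO wells and 100% = buffer wells lacking importin beta; nearly all actives have a fitted effect of over 15% in size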
Target sequence (Q14974 whole entry, looked up): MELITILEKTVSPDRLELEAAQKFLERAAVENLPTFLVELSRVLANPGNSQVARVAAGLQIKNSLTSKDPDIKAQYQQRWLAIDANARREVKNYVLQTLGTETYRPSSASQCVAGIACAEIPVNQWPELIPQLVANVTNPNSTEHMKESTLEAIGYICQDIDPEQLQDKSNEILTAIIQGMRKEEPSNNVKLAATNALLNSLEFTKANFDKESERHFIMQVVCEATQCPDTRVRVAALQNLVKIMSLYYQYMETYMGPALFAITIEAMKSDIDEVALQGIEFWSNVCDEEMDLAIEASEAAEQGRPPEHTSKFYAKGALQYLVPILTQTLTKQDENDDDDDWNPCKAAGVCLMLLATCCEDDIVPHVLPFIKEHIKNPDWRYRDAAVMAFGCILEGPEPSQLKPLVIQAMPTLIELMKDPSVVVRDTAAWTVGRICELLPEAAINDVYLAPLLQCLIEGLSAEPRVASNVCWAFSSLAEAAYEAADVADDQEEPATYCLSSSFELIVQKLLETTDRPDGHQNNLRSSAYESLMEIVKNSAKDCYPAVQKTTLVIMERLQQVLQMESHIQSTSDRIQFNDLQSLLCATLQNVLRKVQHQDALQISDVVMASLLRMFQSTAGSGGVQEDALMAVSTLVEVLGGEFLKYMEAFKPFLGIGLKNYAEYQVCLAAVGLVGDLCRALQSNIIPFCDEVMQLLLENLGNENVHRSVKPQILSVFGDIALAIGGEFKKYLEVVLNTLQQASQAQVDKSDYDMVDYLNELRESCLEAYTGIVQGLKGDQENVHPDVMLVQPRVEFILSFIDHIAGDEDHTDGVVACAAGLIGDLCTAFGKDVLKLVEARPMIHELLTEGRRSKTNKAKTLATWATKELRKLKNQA
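FRET biosensor (snurportin 1 IBB flanked by EYFP and cerulean), 50 nM, with compound 5 min, then 0.125 microM importin beta in PBS, 1 mM DTT, 0.02% Tween-20, 0.1% BSA. CFP/YFP ratio read after 45 min at room temperature; pre-read flags interference.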
miR-21 FLuc – raises the signal of a miR-21 reporter; HeLa miR-21 FLuc reporter, luciferase, 48 h; Potency, µM (highest dose often 38.3 µM), inactives show at the top dose reporter change, positive = more light; 340,000 tested, under 10 active; AID 2288; active = well fitted rising curve with a large enough effect; inconclusive = small, poorly fitted or top-dose-only effect; inactive = no such curve, though single readings can be large or run the other way;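 further: % of control where 0% means no effect; miR-21 action dims this reporter so a rising signal means less miR-21 action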
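HeLa cells endogenously expressing miR-21, stably carrying CMV-driven firefly luciferase with a downstream miR-21 binding site, 2000 cells/well. Titrations up to approximately 40 uM, 48 hours; luciferase luminescence read.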
Numbers without * were called inactive; u = inconclusive; x = not tested or not shown; & = joins results of further samples; [ ] = dose if it differs, or a comment. An excerpt. The share of hits here may be higher or lower than overall.

no.	Molecule	Rango release inh	GLA inh pH 4.5	Rango-impB inh	miR-21 FLuc
1	CCN(CC)C(=O)CS(=O)CC(=O)Nc1cc(OCCOC)c(Cl)cc1Cl (configuration not stated)	-8%	7	-0.9%	1%
2	Cc1ccc(Cl)cc1N1CCN(C(=O)CCC(=O)O)CC1	6%	7	-0.4%	3%
3	COCCCN1C(=O)c2[nH]nc(-c3cc(C)cc(C)c3O)c2C1c1ccc(O)c(OC)c1 (configuration not stated)	8%	7	-3.8%	-19%
4	O=C(NC(=S)Nc1ccc(S(=O)(=O)Nc2nccs2)cc1)c1cccnc1	0%	1	-1.0%	-3%
5	COCCn1c(SCC(=O)c2c(-c3ccccc3)n(C)c3ccccc23)nnc1-c1ccncc1	-3%	4	5.2%	-6%
6	COc1ccc(CCNC(=O)CSc2ccc(-c3ccco3)nn2)cc1	1%	-1	-1.8%	2%
7	NC(=O)c1ccc(NC(=O)COc2cccc3ccccc23)cc1	-16%	x	u	-3%
8	Cc1cccn2c(=O)c(C=C(C#N)C#N)c(N3CCN(c4ccccc4)CC3)nc12	-12%	x	-0.5%	0%
9	CCn1nc(C(=O)Nc2ccc(S(=O)(=O)Nc3ncccn3)cc2)c2ccccc2c1=O	18%	4	-1.3%	-7%
10	CCOc1ccccc1C(=O)NCCCN1CCN(CCCNC(=O)c2ccccc2OCC)CC1	-10%	-11	0.1%	-6%
11	CCOC(CNC(=O)CCc1c(C)nc2nc(C)nn2c1C)OCC	-10%	4	0.2%	-8%
12	C=CCOc1ccc(Oc2cc(C)nc(SC)n2)nn1	7%	-2	-2.7%	-8%
13	COc1ccc(-c2cc(-c3cccs3)nc3sc(C#N)c(N)c23)cc1	u	-7	u	13%
14	Cc1cc(C)nc(/N=C(\N)N2CCc3ccccc32)n1	16%	-12	1.8%	-12%
15	Cc1oc(-c2ccc(Cl)cc2)nc1CS(=O)CC(=O)NCc1ccccc1 (configuration not stated)	-10%	x	4.2%	-6%
16	Cc1nnc(-c2cnn(-c3ccccc3)c2N)n1Cc1cccc(C(F)(F)F)c1	7%	7	0.3%	-14%
17	O=C(CNc1cccc(S(=O)(=O)N2CCCC2)c1)Nc1ccc(C(F)(F)F)cc1	3%	x	4.0%	x
18	CCN1CCc2c(OCC(=O)N3CCC(C)CC3)cccc2C1=O	-4%	-2	1.4%	-1%
19	O=C(CCN1CCCC1=O)NC1CCCc2c1cnn2-c1ccc(F)cc1F (configuration not stated)	-6%	x	-0.6%	-16%
20	Cc1cc(/C=C2\C(=N)N3N=C(C(C)C)SC3=NC2=O)c(C)n1-c1ccccc1	-14%	-7[21.1 µM]	-0.5%	-7%
21	COCCNC(=S)N1CCOCC1	3%	0	1.6%	-5%
22	CCc1ccc(C2N3CC4([N+](=O)[O-])CN2CC([N+](=O)[O-])(C3)C4(C)C)cc1 (configuration not stated)	12%	3	4.0%	0%
23	Cc1ccc(O)c(CNc2nc3ccccc3[nH]2)c1	10%	x	0.3%	-30%
24	O=C(O)c1cc(-c2ccccc2)n(-c2ccc(F)cc2)n1	1%	x	-2.2%	-6%
25	CCN1CCN(Cc2ccc(NC(=O)c3cc(NC(=O)c4ccc5n[nH]nc5c4)cc(OC)c3)cc2C(F)(F)F)CC1	14%	-3	3.2%	-4%
26	COc1ccc(C2c3[nH]c4ccccc4c3CCN2C(=O)c2ccccc2C(C)=O)c(F)c1 (configuration not stated)	20%	x	-1.1%	20%
27	NS(=O)(=O)c1ccc(CCNC(=O)Nc2ccc(Cl)cc2)cc1	0%	3	5.8%	10%
28	CC(=O)Nc1ccc(OC(F)(F)C(F)F)c(NC(C)=O)c1	2%	4	-5.5%	-2%
29	Cc1onc(-c2ccccc2)c1C(=O)NCCN1CCOCC1	-9%	12	u	-5%
30	CCOc1ccccc1CNc1nnnn1C	-7%	x	11%	-1%

One compound at a time (already shown). Order of values: Rango release inh	GLA inh pH 4.5	Rango-impB inh	miR-21 FLuc
CCN1CCc2c(OCC(=O)N3CCC(C)CC3)cccc2C1=O across the screens: -4%	-2	1.4%	-1%
Cc1ccc(O)c(CNc2nc3ccccc3[nH]2)c1 across the screens: 10%	x	0.3%	-30%

The list goes on.
no.	Molecule	Rango release inh	GLA inh pH 4.5	Rango-impB inh	miR-21 FLuc
31	CC(C)c1ccc(S(=O)(=O)Nc2ccc(-n3cnnn3)cc2)cc1	11%	x	0.6%	x
32	O=C(c1ccco1)N1N=C(c2cccs2)CC1c1ccccc1O (configuration not stated)	0%	x	2.3%	10%
33	CCOCc1nnc(NC(=O)c2cc(OC)cc(OC)c2)s1	-3%	2	-2.4%	-10%
34	Cc1cnc(C(=O)Nc2nnc(SCc3c(Cl)cccc3Cl)s2)cn1	-25%	-4	-5.2%	-8%
35	CCOC(=O)c1sc(NC(=O)CCc2ccc(OC)cc2)nc1C	-13%	x	1.4%	1%
36	O=C(COc1ccc(S(=O)(=O)N2CCOCC2)cc1Cl)NCC1CCCO1 (configuration not stated)	-8%	x	-0.5%	-1%
37	Cc1ccc(S(=O)(=O)N2CCC(C(N)=O)CC2)cc1[N+](=O)[O-]	-2%	x	-0.8%	9%
38	CNS(=O)(=O)c1cccc(C(=O)OCC(=O)NCCCc2ccccc2)c1	-9%	x	0.4%	-3%
39	OCCN1CCN(CC(O)COC(c2ccc(F)cc2)c2ccc(F)cc2)CC1 (configuration not stated)	-7%	x	5.9%	-6%
40	O=C(CSc1ncccn1)NCc1cccc(Cl)c1	3%	-2	0.1%	-49%
41	Cc1nc2c(C#N)cnn2c2c1CCN2CC1CCCO1 (configuration not stated)	-16%	8	3.4%	-3%
42	Cn1c(/C=C/c2ccc(Br)cc2)c([N+](=O)[O-])c(=O)n(C)c1=O	15%	x	1.0%	23%
43	CC1CCC(NC(=O)CCN2C(=O)C3C4C=CC(C4)C3C2=O)CC1 (configuration not stated)	17%	x	-2.8%	6%
44	CCOC(=O)C1CCCN(CC(=O)NC2CC2)C1 (configuration not stated)	-1%	5	-2.9%	0%
45	COc1ccc(/C=N/NC(=O)c2ccc(Cl)cc2)cc1Cn1cc(Cl)cn1	1%	-3	1.1%	-8%
46	CCn1cc(C(=O)O)c(=O)c2cnc(N3CCN(C(=S)NC(=O)c4ccc(Cl)cc4)CC3)nc21	20%	6	-0.3%	0%
47	CCCn1cc(S(=O)(=O)c2ccccc2)c(=O)c2cc(CC)ccc21	0%	x	2.8%	-3%
48	COc1ccc(-c2noc(CCC(=O)NCc3ccco3)n2)cc1	21%	-2	0.7%	-15%
49	CCCn1nnnc1SCC(=O)N1CCOCC1	8%	4	0.6%	-5%
50	COc1ccccc1N(CC(=O)NCCSCc1ccccc1)S(C)(=O)=O	4%	x	-0.6%	0%&3%
51	COc1ccc(/C=C/C(=O)Nc2ccc(C(N)=O)cc2)cc1OC	-9%	0	4.5%	-7%
52	Cc1cc(C)n2nc(C(=O)OCCOc3ccc(Br)cc3)nc2n1	1%	-12	0.7%	-1%
53	COC(=O)c1cc(N2CCN(C)CC2)nc2ccccc12	u	-1	u	-3%
54	O=C(COC(=O)c1ccco1)NC1CCCCC1	21%	-5	0.3%	-7%
55	COc1cc(CNC2CCCC2)c(Br)cc1OC1CCCC1	3%	0	2.7%	1%
56	Cc1cc(C)nc(-n2nc(C)c(C3(O)C(=O)Nc4ccccc43)c2N)n1 (configuration not stated)	-17%	-7	0.5%	-8%
57	CCOC(=O)c1c(N)sc(C(=O)OC)c1C	-8%	2	-0.2%	-23%
58	Cc1ccccc1C(=O)NCCn1cc(SCC(=O)NCC2CCCO2)c2ccccc21 (configuration not stated)	x	x	u	4%
59	Cn1nc(-c2ccccc2)c(CO)c1Oc1ccc(F)cc1	2%	9	1.3%	-13%
60	N#Cc1c(N)nc2c(c1-c1cccs1)CCCC2	-5%	7	u	3%

Rewritten with one line to a screen: 2 of the compounds above.
#7 NC(=O)c1ccc(NC(=O)COc2cccc3ccccc23)cc1
#8 Cc1cccn2c(=O)c(C=C(C#N)C#N)c(N3CCN(c4ccccc4)CC3)nc12

| assay / entry | 7 | 8 |
| --- | --- | --- |
| Rango release inh | -16% | -12% |
| GLA inh pH 4.5 | x | x |
| Rango-impB inh | u | -0.5% |
| miR-21 FLuc | -3% | 0% |

Entries by screen from the entries so far:
Rango release inh, compounds 5–12 → -3%, 1%, -16%, -12%, 18%, -10%, -10%, 7%
Rango-impB inh, compounds 5–12 → 5.2%, -1.8%, u, -0.5%, -1.3%, 0.1%, 0.2%, -2.7%
miR-21 FLuc, compounds 5–12 → -6%, 2%, -3%, 0%, -7%, -6%, -8%, -8%

(continued)
no.	Molecule	Rango release inh	GLA inh pH 4.5	Rango-impB inh	miR-21 FLuc
61	CC(C)c1ccc(CNCc2ccccc2)cc1	12%	-7	3.9%	-26%
62	CCc1ccccc1Nc1ncnc2ccccc12	2%	x	-0.8%	-14%
63	CCC(c1nnc(SCC(=O)NCCc2ccc(OC)c(OC)c2)n1Cc1ccccc1)N(C)C (configuration not stated)	2%	-3	-3.1%	-9%
64	CCN1C(=O)[C@H]2[C@@H](c3ccc(C)cc3)N3C(=O)N(c4cccc(Cl)c4)C(=O)[C@@]3(C)[C@H]2C1=O	1%	x	3.6%	x
65	COCC(C)NC(=S)N1CCN(c2ccccc2Cl)CC1 (configuration not stated)	-5%	0	0.6%	-5%
66	CCOC(=O)CN1C(=O)C(O)(CC(=O)c2ccccn2)c2ccccc21 (configuration not stated)	14%	-11	0.3%	0%
67	COc1ccc(C2CC(c3cccs3)=NN2C(=O)CSc2nnnn2C)cc1OC (configuration not stated)	-12%	-1	-0.6%	-10%
68	O=c1[nH]nnc2sc3c(c12)CCCC3	-3%	-2	4.4%	1%
69	COc1cccc(CN2CCN(c3ncccn3)CC2)c1OC	15%	x	-3.2%	-4%
70	CN(C)c1ccc(NC(=O)c2ccc(Cn3cc([N+](=O)[O-])cn3)cc2)cc1	0%	-3	3.1%	-30%
71	CCCCN(CCCC)S(=O)(=O)c1ccc(NC(=O)c2ccc([N+](=O)[O-])cc2Cl)cc1	2%	-1	6.1%	u
72	COc1ccc(CCNC(=O)C2CC(c3c(Cl)cccc3Cl)=NO2)cc1 (configuration not stated)	14%	1	0.2%	-3%
73	CC1(C)CC(=O)C(N=Nc2ccc(C(F)(F)F)cc2[N+](=O)[O-])=C(O)C1	-1%	-6	0.6%	-1%
74	CC(Oc1cc2oc(=O)c3c(c2cc1Cl)CCC3)C(=O)NCCCn1ccnc1 (configuration not stated)	2%	x	1.6%	-3%
75	Cc1cnn(-c2nc(-c3cccs3)cc(C(F)(F)F)n2)c1	-3%	-10	-1.4%	10%
76	O=C(CCS(=O)(=O)c1ccccc1)Nc1nc(-c2ccc(F)cc2)cs1	-10%	0	2.7%	-2%
77	O=C(O)[C@@H]1CC(O)CN1C(=O)CCc1c[nH]c2ccccc12 (some centres not stated)	23%	x	-2.3%	-7%
78	COc1cc(Nc2ccc(C)cc2)c([N+](=O)[O-])nc1[N+](=O)[O-]	-3%	-12	-0.1%	26%
79	O=C(/C=C/c1cccc(Br)c1)OCC(=O)N1CCN(c2ccccc2)CC1	5%	x	3.2%	x
80	O=S(=O)(c1cccs1)N1CCN(C/C=C/c2ccccc2)CC1	-6%	-6	0.1%	3%
81	CC(C(=O)Nc1ccc(C(N)=O)cc1)N1C(=O)c2ccccc2S1(=O)=O (configuration not stated)	4%	x	3.6%	x
82	C=CCn1c(SCc2ccc(F)cc2)nnc1-c1sc2nc(C)cc(C)c2c1N	-29%	17	u	1%
83	Cc1nn(C(C)C(=O)NNC(=S)Nc2ccc(Cl)cc2)c(C)c1[N+](=O)[O-] (configuration not stated)	30%	-4	2.7%	-4%

3 compounds already listed, sorted by the value under GLA inh pH 4.5, low to high:
no.	Molecule	Rango release inh	GLA inh pH 4.5	Rango-impB inh	miR-21 FLuc
70	CN(C)c1ccc(NC(=O)c2ccc(Cn3cc([N+](=O)[O-])cn3)cc2)cc1	0%	-3	3.1%	-30%
67	COc1ccc(C2CC(c3cccs3)=NN2C(=O)CSc2nnnn2C)cc1OC (configuration not stated)	-12%	-1	-0.6%	-10%
76	O=C(CCS(=O)(=O)c1ccccc1)Nc1nc(-c2ccc(F)cc2)cs1	-10%	0	2.7%	-2%
